Beta cell apopt: blocks beta cell apoptosis. INS-1E cytokine-induced death, ATP luminescence, 48 h; percent of positive-control rescue, neutral wells zero. protection from apoptosis, % (no concentration beside the values). 300,000 compounds, 0.8% hits. AID 435005;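 active means all replicates at 75% or more, or half of them and the mean; inconclusive means half reach 75% but not the mean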;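 further: 0% = cytokine-treated negative control wells and 100% = positive control rescue; higher means more ATP so stronger rescue from cytokine killing; wells of about 40 µL received 100 nL stock; the first replicate is given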
T cruzi inh: T. cruzi replication inhibition; T. cruzi beta-gal in NIH3T3, luminescence, 90 h; inhibition, % (concentration not given with the values); 300,000 compounds, 1.4% hits;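 active means mean inhibition across valid replicates above about 55%, limit read from the data; inconclusive means mean below that limit but half or more replicates reach it; inactive means mean below it, under half of replicates reach it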;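 further: signal also drops with host cell toxicity which is not excluded here; 0% = plate median of DMSO wells and 100% = zero luminescence signal; higher percent means less beta-gal luminescence so fewer parasites; stock transfer was 50 nL into about 50 µL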
ALR H2O2 inh: inhibitors of human sulfhydryl oxidase ALR; inhibition, % (test concentration not listed); purified ALR, DTT oxidation, H2O2 HRP-luminol luminescence; 290,000 compounds, 3.8% hits; P55789;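 active means mean and each replicate at 75% or more; inconclusive means only one of the two met; inactive means neither met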;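 further: stock transfer was 7.5 nL into about 7.5 µL; 0% = neutral wells and 100% = wells with inactivated enzyme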
Target sequence (P55789 whole entry, looked up): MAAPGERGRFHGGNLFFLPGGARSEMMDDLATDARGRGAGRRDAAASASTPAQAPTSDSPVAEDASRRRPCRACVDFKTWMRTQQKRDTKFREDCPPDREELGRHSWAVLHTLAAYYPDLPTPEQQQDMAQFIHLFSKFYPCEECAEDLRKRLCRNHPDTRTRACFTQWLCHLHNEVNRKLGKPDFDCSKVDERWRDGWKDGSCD
rRNA inh HTS: inhibits bacterial ribosomal RNA function over humanized ribosomes | E. coli WT GFP vs humanized-ribosome RFP mutants, fluorescence, 24 h; stronger effect = lower value; DMSO median 0, no signal -100 | GFP signal change (wild-type ribosome), % (concentration not given with the values) | 350,000 compounds, 1.6% hits | AID 720706;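 active means significant combined selectivity score with lowered wild-type GFP, culture density cut under 30%, mutant RFP and density less affected; inactive means any of these conditions unmet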; further: one replicate is shown; some compounds called inactive have numbers as strong as hits
LANA-H2A inh: blocks KSHV LANA binding to histone H2A/H2B; Q9QR71; cell-free LANA-H2A/H2B peptide, fluorescence polarization; inhibition, % (no concentration beside the values); 320,000 compounds, 0.6% hits; in the data active means inhibition mostly above about 10%, no sharp cut-off; inactive means mostly below about 6.7%;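 further: stock transfer was 7.5 nL into about 10 µL; 0% = median of vehicle wells and 100% = median of positive control wells; one replicate is shown; the record names a cut of 25% in any replicate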
Calb FLC: affects C. albicans growth with fluconazole; C. albicans CaCi-2 (fluconazole-resistant clinical isolate) + fluconazole, Alamar Blue growth, 48 h; growth inhibition, % (no concentration beside the values); 300,000 compounds, 0.57% hits;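 active means most replicates above 75%; inconclusive means exactly half above 75%; inactive means most below 75%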;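 further: all wells also contain fluconazole at 8 µg/ml as a sub-toxic cotreatment; 0% = median of DMSO wells and 100% = median of geldanamycin control wells; wells of about 8 µL received 7.5 nL stock; the first replicate is given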
Bfl-1 A1 inh: inhibitors of the anti-apoptotic protein A1, read as caspase activation. caspase activation, % (test concentration not listed). 330,000 compounds, 0.066% hits. MEF A1-2A-BIM cells, Caspase-Glo 3/7 luminescence, 3 h; percent of clofoctol response, vehicle zero. AID 2462;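 active means over half of replicate activation scores above 10%, or exactly half above 10 with the replicate mean above 10; inconclusive means replicate mean below 10 yet half the replicates above 10; inactive means over half of replicates below 10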;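 further: wells of about 30 µL received 50 nL stock; many hits fall short of the cut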
B2AR ag: activates human beta-2 adrenergic receptor causing internalization; P07550; Am2.2-beta2AR cells, FAP receptor internalization, flow cytometry; reference of the scale not given here; response, % (concentration not given with the values); 340,000 compounds, 0.43% hits; AID 504454;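 active means response above a set limit, near 3 SD of response in nonfluorescent compounds, cut at about 42% in these data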;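 further: stock transfer was 100 nL into about 11 µL; a reference agonist was the positive control; negative values mostly stem from fluorescent compounds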
Target sequence (P07550 whole entry, looked up): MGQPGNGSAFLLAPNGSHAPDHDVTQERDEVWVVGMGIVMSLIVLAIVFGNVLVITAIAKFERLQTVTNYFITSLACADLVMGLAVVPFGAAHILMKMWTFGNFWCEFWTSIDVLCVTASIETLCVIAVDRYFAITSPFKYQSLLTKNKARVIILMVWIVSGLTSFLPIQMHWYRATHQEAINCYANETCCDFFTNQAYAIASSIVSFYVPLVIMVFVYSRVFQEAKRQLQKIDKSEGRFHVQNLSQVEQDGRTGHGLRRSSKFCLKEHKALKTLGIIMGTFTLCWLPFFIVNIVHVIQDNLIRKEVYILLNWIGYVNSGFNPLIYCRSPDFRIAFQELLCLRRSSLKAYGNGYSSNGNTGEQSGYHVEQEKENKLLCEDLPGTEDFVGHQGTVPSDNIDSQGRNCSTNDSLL
rRNA inh HTS OD600: further read-out of rRNA inh HTS, marked with its call; OD600 change, %; measured here: OD600 growth;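 optical density of the mix in the first replicate; 0 = DMSO median and -100 = no signal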
rRNA inh HTS RFP: second read-out of rRNA inh HTS, no call of its own (marks repeat the call); RFP signal change, %; measured here: RFP humanized mutant strains;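 first replicate; 0 = DMSO median and -100 = no signal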
* hit, by the source's call; ? = inconclusive; . = not tested or not shown; + = active, no number. Not all compounds are listed (hit frequency here may not be typical).

Values run as follows: Beta cell apopt, T cruzi inh, ALR H2O2 inh, rRNA inh HTS, rRNA inh HTS OD600, rRNA inh HTS RFP, LANA-H2A inh, Calb FLC, Bfl-1 A1 inh, B2AR ag
O=C1CN(C(=O)c2ccccc2F)c2ccccc2N1
 : -9.3, -8.7, -8.6, ., ., ., 2.4, 29.9, 0.4, 1.0
COC(=O)c1c(NC(=O)CSc2nnc(-c3cccnc3)n2Cc2ccco2)sc(C)c1C
 : 3.5, 1.7, -7.3, ., ., ., 3.1, 4.4, -0.5, -6.8
Cc1cc(NCc2ccccc2)nc2ccccc12
 : 22.8, 39.2, -2.0, ., ., ., 7.7, -22.3, 0.3, -14.9
CC(=O)Nc1ccc2c(c1)N(C(C)=O)c1ccccc1CC2
 : 0.8, -14.7, -0.2, 17.6, 11.2, 1.2, -2.1, -4.8, -0.4, 3.5
Cc1ccc(NC(=O)c2cc(S(=O)(=O)N3CCOCC3)cn2C)cc1Cl
 : -1.2, -15.7, -28.5, 5.5, 12.9, -3.7, 4.7, -4.0, 0.2, -3.5
Cc1ccc(S(=O)(=O)N2CCN(C(=O)Cc3sc(C)nc3-c3ccc(F)cc3)CC2)c(C)c1
 : 3.2, 0.8, -12.2, -5.5, -13.7, 1.8, 0.3, -1.2, -0.4, 3.1
CCc1ccc2oc(=O)cc(CN3CCN(Cc4ccccc4)CC3)c2c1
 : 4.2, 61.4*, -0.6, -10.3, -12.2, -8.1, -4.2, 3.2, 1.7, 2.2
Cc1c(C#N)c(NC(=O)C(C)C)n(Cc2ccccc2)c1C
 : -3.1, -10.8, 8.4, 18.1, 24.8, 2.0, 5.7, -22.0, 0.5, 4.9
O=C(Cc1ccccc1[N+](=O)[O-])NCCCN1CCOCC1
 : -8.6, -5.2, -4.5, 3.9, 3.0, -1.5, +, -12.2, -0.3, 1.8
COc1cccc(C2c3[nH]c4ccccc4c3C[C@H]3C(=O)N(c4ccccc4C(=O)N4CCCC4C(=O)O)C(=O)N23)c1 (stereo partly drawn)
 : ., -4.7, 97.2*, 0.4, -5.5, -0.2, -0.2, -1.1, -0.3, 1.5
O=C(Cn1cnc2ccccc2c1=O)Nc1ccc2c(c1)CCC2
 : -0.1, 18.9, -3.4, ., ., ., -0.2, -32.4, 1.0, 3.8
S=C(NCc1ccccc1)Nc1ccc2ccccc2c1
 : -1.7, ., -29.2, -37.1, -58.0, -5.3, -4.7, -33.6, -0.7, -2.6
CCCCCCn1c(CN2CCN(C(=O)OCC)CC2)nc2c1c(=O)n(C)c(=O)n2C
 : 5.3, 4.3, 1.8, ., ., ., 3.8, 0.6, 0.3, -23.6
COCCCNC(=O)CN(CCc1ccccc1)S(=O)(=O)c1ccc(OC)cc1
 : -0.6, 3.8, 0.3, -23.9*, -16.1*, -2.2*, 6.8, 3.1, 0.4, -0.5
O=C(N/C=C/n1cnc2cc(C(F)(F)F)ccc21)c1ccccc1
 : -7.6, -9.7, -14.7, 5.4, -3.2, -2.9, 3.5, 2.1, 1.0, 7.9
COCc1nnc(SCC(=O)NCc2ccccc2)n1-c1ccccc1
 : -1.5, -0.4, -6.4, 11.4, 10.1, -2.5, -3.0, -3.7, -0.6, 0.6
NS(=O)(=O)c1ccc(CCNC(=O)CN2CCCCCC2)cc1
 : -0.8, -13.2, ., 20.1, 12.8, 2.3, 0.2, -0.4, 0.4, -3.4
N=C(N)SCc1ccc(Cl)cc1Cl
 : -24.7, -13.8, 99.1*, ., ., ., -4.1, -30.2, 0.4, 8.4
Cc1ccc(-c2nc(CSCC(=O)NCc3cccnc3)c(C)o2)cc1
 : ., -10.3, 98.6*, ., ., ., 0.9, -0.8, -0.1, 12.6
N#CCN(C(=O)COC(=O)CCCNC(=O)c1ccc(Cl)cc1)c1ccccc1
 : -1.5, ., -3.6, 4.9, -1.3, -1.4, 0.4, ., -0.4, 6.9
O=C(C1=C[C@H](c2ccc3c(c2)OCO3)C[C@H](OCc2ccc(CO)cc2)O1)N1CCCCCCC1
 : -1.1, 18.7, -13.1, -22.6, -25.8, 7.7, 7.5, 18.5, -0.4, -5.9
CCN(CCCNC(=O)C1c2ccccc2C(=O)N(CCOC)C1c1ccc(F)cc1)Cc1ccccc1 (stereo not drawn)
 : -2.6, -6.6, -2.9, 2.3, -0.2, -0.4, -0.2, -8.7, 0.3, 3.6
C/C(=N\Nc1ncc(Br)cn1)c1cccc([N+](=O)[O-])c1
 : ., -2.1, -4.5, 1.9, 2.2, -0.8, 10.8, 6.0, 0.2, -12.0
CCOc1ccc(-c2ccc(SCC(=O)Nc3nnc(C)s3)nn2)cc1
 : 0.4, 0.7, 32.2, 19.8, 17.9, 2.1, -0.6, 10.8, -2.8, 0.8
Cc1c(C(=O)O)oc2ccc(S(=O)(=O)NCCC3=CCCCC3)cc12
 : ., 15.0, ., ., ., ., 5.9, 23.4, 0.5, 3.2
COC(=O)COc1coc(CN2CCN(c3cccc(Cl)c3)CC2)cc1=O
 : ., -6.5, 3.2, 0.7, 1.0, -3.6, -0.4, 0.7, 2.4, 12.9
O=C(CSc1nnc2scc(-c3ccccc3)n12)N1CCCc2ccccc21
 : 1.1, 4.1, -9.7, 10.2, 8.5, -4.5, -2.5, -13.0, 0.2, -6.3
COc1ccccc1N1C(=O)C2C3C=CC(CC3)C2C1=O (stereo not drawn)
 : -4.9, -3.5, -9.6, 9.2, 6.1, -4.2, -0.1, 2.3, 0.3, 1.2
Cc1ccc(C)c(N(CC(=O)N2CCc3ccccc3C2)S(C)(=O)=O)c1
 : -2.0, 4.6, 11.6, -27.6, -23.3, -3.7, -3.8, -8.8, -0.5, -4.5
COc1ccc(COC(=O)C2CCN(S(=O)(=O)c3ccc(OC)c(OC)c3)CC2)cc1
 : -3.9, ., -4.4, ., ., ., -2.8, ., 0.2, 3.9
CCOc1ccccc1C1CC(c2ccccc2)Nc2nc(N)nn21 (stereo not drawn)
 : 2.1, 19.8, 43.9, -5.9, -8.6, 0.2, 0.3, -14.1, 1.0, 1.5
COc1ccccc1NC(=O)c1ccc([N+](=O)[O-])cc1[N+](=O)[O-]
 : 9.9, ?, -30.0, 7.2, 0.4, -4.8, -1.3, 12.4, 0.3, -10.9
CCOC(=O)C1CCN(Cc2cc(=O)oc3c(C)c(C)ccc23)CC1
 : -4.6, 10.7, ., -29.0, -32.5, -6.7, -0.8, 8.2, -0.5, -0.1
CCCCNC(=S)NNC(=O)c1csc2c1CCC(C)C2 (stereo not drawn)
 : -0.4, 11.9, 29.2, ., ., ., 0.7, 2.0, 0.5, -10.0
O=c1[nH]cnc2sc3c(c12)CN(Cc1ccccc1)CC3
 : -9.7, -1.8, -9.4, 21.8, 22.6, 1.3, -11.1, -1.6, 0.6, 20.2
CCCCNC(=O)COC(=O)CCC(=O)c1cccs1
 : 4.7, -27.9, -3.8, 15.5, 18.2, 0.6, -3.2, 20.8, -0.2, -2.8
COc1ccc(-c2nc3ccccc3c(=O)n2CCOc2cc(C)ccc2C)cc1
 : 2.4, -20.8, -0.3, 4.5, 6.3, 0.5, 1.3, ?, -0.4, -5.0
Cc1occc1-c1nnc(SCC(=O)c2ccc3c(c2)OCCO3)n1CC1CCCO1 (stereo not drawn)
 : -4.3, 0.4, 23.2, 0.9, -4.9, -8.6, 1.4, -5.5, 0.6, 10.7
CC(=O)c1ccc(NC(=O)CN2CCN(CC(=O)Nc3ccc(C(C)=O)cc3)CC2)cc1
 : ., 6.4, ., 22.5, 9.6, 6.3, ., -1.2, ., -8.5
Cc1cnc(C(=O)Nc2ccccc2-n2cccc2)cn1
 : -6.5, -11.5, 2.9, ., ., ., -3.9, -6.2, -0.1, 0.1
CCc1cccc(CC)c1NC(=O)C(CC)Sc1nc2ccncc2[nH]1 (stereo not drawn)
 : 4.2, -2.0, ., 7.5, 5.4, 0.7, 5.1, -2.7, -0.1, -0.5
COc1ccccc1OCCNc1nc2c(c(=O)n(C)c(=O)n2C)n1C
 : 3.6, -4.6, -3.5, ., ., ., -1.9, -4.0, 0.5, -6.1
Cc1ccc(C)c(NC(=O)C[n+]2ccccc2)c1
 : -2.5, -6.4, -4.3, 18.4, 12.1, 4.6, -0.8, -7.7, 1.0, 0.8
Cc1ccccc1-n1nnnc1SCc1csc(-c2ccccc2)n1
 : 1.8, 6.2, 56.9, ., ., ., -3.8, 8.4, -0.1, -3.3
Cc1sc2nc(CSCC(=O)Nc3c(F)cccc3F)[nH]c(=O)c2c1C
 : ., -1.2, 20.2, 12.2, 8.9, -0.5, 3.9, 1.6, 0.0, 1.8
CCOC(=O)Cn1c(=O)oc2cc(S(=O)(=O)N3CCN(C(=O)OCC)CC3)ccc21
 : 2.1, -10.1, -2.4, -4.8, 2.6, -3.7, -3.9, 12.3, -0.6, 3.7
COCCn1c(N)c(N(Cc2ccccc2)C(=O)C2CCCC2)c(=O)[nH]c1=O
 : -1.7, -8.9, -3.6, 4.6, 3.0, 0.8, 1.8, ?, 1.8, 5.6
Cc1c(C(=O)NCc2cccnc2)oc2ccc(S(=O)(=O)N3CCCCC3)cc12
 : ., 8.8, ., ., ., ., 2.9, -5.7, -0.7, -2.2
COC(=O)c1cn(C)c2ccc(S(=O)(=O)N3CCOCC3)cc2c1=O
 : -0.9, -12.7, -1.3, 26.1, 16.4, 2.9, -3.0, -6.6, 1.3, -1.2
CSCCC(NS(=O)(=O)c1c(Cl)cccc1Cl)C(=O)O (stereo not drawn)
 : -2.2, -15.7, ., 26.1, 17.1, 3.4, ., -12.1, 1.2, -2.2
O=C(Nc1cccc(S(=O)(=O)N2CCOCC2)c1)C1CC(=O)N(c2ccc3c(c2)OCCO3)C1 (stereo not drawn)
 : 6.2, ., -0.5, 3.7, 3.1, 2.3, -4.7, ., 0.6, 4.9

High-throughput results from PubChem.
